CDC25B-CDK2 inh = human CDC25B-CDK2/CyclinA binding inhibition. P30305+P24941. HTRF CDC25B-CDK2/CyclinA binding, anti-His/anti-Flag; active compounds read high. z-score (no concentration beside the values). 0.72% of 94,000 active. AID 1259370;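 further: score is relative to mean and SD of negative controls; strong numbers were not always called active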
TAR Tat displ = HIV-1 TAR-Tat binding disruption. z-score (test concentration not listed). 0.6% of 100,000 active. AID 1259389. HIV-1 TAR RNA, Tat peptide displacement FRET; active compounds read high;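 further: score is relative to mean and SD of negative controls; some compounds called inactive have numbers as strong as hits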
Numbers without * were called inactive; . = not tested or not shown; & = joins results of further samples.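 How the source made its calls: active means z-score from 3 up in half or more of its runs; inactive means the rest.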 Compounds were not picked by outcome; overall some 0.87% were active at least once.

SMILES	CDC25B-CDK2 inh	TAR Tat displ
C[n+]1cc2c3c(ccc2c2ccc4cc5c(cc4c21)OCO5)OCO3	-1.3	0.74&2.7
CC(=O)c1c(C)[nH]c(C(=O)NCCCN2CCCC(C)C2)c1C (configuration not stated)	0.06	.
CCc1cc(C(=O)c2ccc(OC)cc2)c(NC(=O)c2nccnc2C(=O)O)s1	-1.6	.
O=c1ccc(-c2ccc(S(=O)(=O)N3CCc4ccccc4C3)o2)n[nH]1	.	0.74
O=C1CC(c2cccs2)CC2=C1C(c1ccc(Cl)cc1)Nc1ccccc1N2 (configuration not stated)	-2.4	0.48
O=c1cc(CSc2nnc(-c3ccc(Cl)cc3)o2)nc2sccn12	-2.8	2
CCC(=O)Nc1nc(C23CC4CC(CC(C4)C2)C3)c(C)s1	-2	.
COc1ccc2c(c1)C(O)(c1c[nH]c3ccccc13)C(=O)N2 (configuration not stated)	.	1.4
O=C(CCCn1sc2ccccc2c1=O)N1CCCC1	-1.6	1.8
O=c1c(Cl)c(Cl)cnn1-c1ccccc1	-1.3	1.7
Cc1nnc(N2C(=O)C(=O)/C(=C(/O)c3ccc(F)cc3)C2c2ccc(Cl)cc2)s1 (configuration not stated)	1.8	0.07
Cc1cccc(-c2noc(-c3cccc(Cl)c3)n2)c1	-0.97	.
Cc1cccc(Cn2nc(C(C)(C)C)cc2C(=O)Nc2ccc3c(c2)OCO3)c1	-1	.
CC1=C(C(=O)Nc2cccc(C)n2)C(c2cccs2)C2=C(CC(C)(C)CC2=O)N1 (configuration not stated)	-1	1.7
CCCOC(=O)c1c(-c2ccccc2)c(-c2ccccc2)nn(C)c1=O	0.08	1.6
CC(C)(C)OCC(NC(=O)OCc1ccccc1)C(=O)ON1C(=O)CCC1=O (configuration not stated)	-1.9	.
CC1(C)CC(=O)C2=C(C1)Nc1ccccc1NC2c1nc2ccccc2[nH]1 (configuration not stated)	-0.54	-1.4
CCOCCCNC(=O)CCc1nnc2ccc(N3CCOCC3)nn12	.	1.2
CCN1CCN(CCCNC(=O)C2CCCN(C(=O)c3cc4sccc4n3CC)C2)CC1 (configuration not stated)	-0.65	1.3
COc1ccc2cc(CCNC(=O)C3c4ccccc4Oc4ccccc43)c(=O)[nH]c2c1	-0.98	.
Cc1ccc(N2C(=O)CSC2c2ccc(Br)cc2)cc1 (configuration not stated)	0.75	1.2
CCC1CN(S(=O)(=O)c2ccc3c(c2)CCCC(=O)N3)c2cc(C)ccc2O1 (configuration not stated)	.	1.5
CC1=C(c2ccccc2)S(=O)(=O)NC1=NC1CC1	-1.8	-1.6
COc1ccc(C2CC(=O)c3cc(-c4nc(-c5ccc(Cl)cc5)cs4)c(=O)[nH]c3C2)cc1OC (configuration not stated)	-2.1	-5.3
CCN1CCN(CCn2c(=S)[nH]c3ncccc3c2=O)CC1	-1.2	.
CC(=O)NCCOc1nc(N2CCOCC2)nc(N2CCOCC2)n1	-1.7	2.1
COc1ccc(NC2c3ncccc3C(=O)N2Cc2cccs2)cc1 (configuration not stated)	-0.43	-0.16
Clc1ccc(OCCCN2CCN(c3cccc4[nH]ccc34)CC2)cc1	-2.2	.
OCc1cnc(SCCc2ccccc2)n1Cc1ccc(F)cc1	.	0.71
Cn1c(=O)oc2cc(S(=O)(=O)Nc3ccc(-c4cc5cc(F)ccc5[nH]4)cc3)ccc21	.	-0.71
O=[N+]([O-])c1cccnc1Sc1nnc(-c2ccccc2)o1	-0.55	-0.37
CC(C)CN1C=NS(=O)(=O)c2ccccc21	.	1.2
Fc1ccc(Br)cc1C1C=C(c2cccs2)Nc2nnnn21 (configuration not stated)	-1.6	.
COCCOC(=O)C1=C(C)N=C2SCCC(=O)N2C1c1ccc(OC)c(OC)c1 (configuration not stated)	-0.98	-0.28
CCCCCn1c(C(O)c2ccccc2)nc2ccccc21 (configuration not stated)	-0.18	0.67
COC(=O)Cc1[nH]nc2c1C(c1ccc(F)cc1F)C(C#N)=C(N)O2 (configuration not stated)	-1.7	-1.2
Nc1nc(SCC(=O)Nc2ccccc2F)ncc1S(=O)(=O)c1ccccc1	.	0.41
CC(CCC(=O)Nc1nncs1)C(=O)O (configuration not stated)	0.1	0.3
O=c1/c(=C/c2ccccc2)sc2nnc(-c3cccs3)n12	-0.97	.
CSc1nc(N)nc(-c2cnccn2)n1	-1.5	.
O=c1[nH]cnc2c1ncn2C1O[C@H](CO)[C@@H](O)[C@H]1O (some centres not stated)	.	-0.71
Cc1cc(C)n(Cc2c(C(=O)NCCSCc3ccco3)noc2C)n1	.	-0.55
C=CCn1c(N)c(C(=O)NCC2CCCO2)sc1=S (configuration not stated)	-0.82	.
CCCOCCOC(=O)C1=C(C)NC2=C(C(=O)C(C(=O)OC)C(C)C2)C1c1ccc2c(c1)OCO2 (configuration not stated)	-1.3	-0.95
O=C1CC(c2ccccc2)CC2=C1C(c1cc(Br)ccc1F)Nc1ccccc1N2 (configuration not stated)	-1.1	.
COc1ccc(C2N3CC4(C(C)C)CN2CC(C(C)C)(C3)C4O)cc1OC (configuration not stated)	-1.5	-1.1
Cc1ccc(CNc2c(-c3ccc(C)cc3)nc3ncccn23)cc1	.	0.2
CC(=O)N1CCSc2ccc(S(=O)(=O)Nc3nc(C)cs3)cc21	.	1.5
O=S(=O)(O)Oc1ccc2cc(Br)ccc2c1	-0.04	.
COc1cccc(NC(=O)Nc2nnc(Cc3ccc([N+](=O)[O-])cc3)s2)c1	-1.9	.
CCn1c(SCC(=O)Nc2nccs2)nc2c([nH]c3ccccc32)c1=O	.	1.5
O=c1c(S(=O)(=O)c2ccc(Cl)cc2)cn(Cc2ccccc2F)c2cc3c(cc12)OCO3	-3.5	-1.8
O=C(Nc1ccc(F)c(Cl)c1)c1cc2nc(-c3ccco3)cc(C(F)(F)F)n2n1	-1.7	-0.91
Cc1cc(C)n(C(=O)Cc2cccs2)n1	-0.13	.
Cc1nn(-c2ccc(N3CCOCC3)nn2)c(C)c1CCC(=O)NCCC1=CCCCC1	.	1.6
CCCCSc1nnc(NC(=O)c2cc(-c3ccc4c(c3)OCCO4)on2)s1	-2.7	2
CCN(CC)Cc1cc2ccccc2c2c1COC2	-0.06	0.7
CC1CC(=O)Nc2cc(S(=O)(=O)Nc3ccccn3)ccc2S1 (configuration not stated)	.	0.99
O=C(C1CC1)N1CCc2cc(S(=O)(=O)N3CCN(c4ccc(F)cc4)CC3)ccc21	-0.84	.
Cc1cc(C)cc(N2CC(O)=C(c3nc4ccccc4[nH]3)C2=N)c1	-2.9	2.5

Pulled one by one from the list above, 4 records:
SMILES	CDC25B-CDK2 inh	TAR Tat displ
O=C(Nc1ccc(F)c(Cl)c1)c1cc2nc(-c3ccco3)cc(C(F)(F)F)n2n1	-1.7	-0.91
Cc1cc(C)cc(N2CC(O)=C(c3nc4ccccc4[nH]3)C2=N)c1	-2.9	2.5
CCN(CC)Cc1cc2ccccc2c2c1COC2	-0.06	0.7
CCCCSc1nnc(NC(=O)c2cc(-c3ccc4c(c3)OCCO4)on2)s1	-2.7	2

Remaining list, next part:
SMILES	CDC25B-CDK2 inh	TAR Tat displ
COc1ccc(CN2CCc3nc(N4CCN(c5ccccn5)CC4)ncc3C2)cc1OC	.	0.9
CCN1CCN(S(=O)(=O)c2ccc3c(c2)C(C)(C)C(=O)N3C)CC1	.	0.44
O=C(Cn1c(=O)oc2cc(Cl)ccc21)NC1CCCc2ccccc21 (configuration not stated)	-0.41	.
O=C(C1CCCN(c2nn3cc(-c4ccc(F)cc4)nc3s2)C1)N1CCCCC1 (configuration not stated)	.	1.4
Fc1ccccc1-c1noc(N2CCc3ccccc3C2)n1	.	0.47
CCOc1ccc(N2CC(c3nc4ccccc4n3CCOc3ccccc3)CC2=O)cc1 (configuration not stated)	-0.87	1.6
O=C(Nc1ccc(Cl)cc1)C1C2C=CC3(O2)C1C(=O)N(C1CC1)C3C(=O)NC1CCCCC1 (configuration not stated)	-2.2	0.81
Clc1ccccc1CNc1nc2ccccc2c2nc(-c3cccnc3)nn12	0.24	-1.2
Cc1nn(CC(=O)NCCN2CCOCC2)c(=O)c2cc3sccc3n12	0.46	0.6
COC(=O)c1nn(-c2ccccc2)nc1C	-2	.
Cc1ccc(-c2nc(CNC(=O)NC3CCCC3)c(C)o2)cc1	.	-0.68
Cc1nc2sc(C(c3cccc(Cl)c3)N3CCC4(CC3)OCCO4)c(O)n2n1 (configuration not stated)	-1.8	.
O=c1c2ccccc2nc(/C=C/c2c[nH]c3ccccc23)n1CCc1ccccc1	-0.55	-0.37
CCOC(=O)c1cn[nH]c1C(F)(F)F	-0.52	.
CC1CC2(C)Oc3ccccc3C3OCC1(COC(=O)Nc1ccccc1)C(C)C32 (configuration not stated)	-0.95	0.7
Cn1nnnc1SCCNCc1ccccc1OCc1ccccc1F	-0.53	0.17
O=C(Cn1c(=O)c2cccn2c2ccccc21)NCCCN1CCOCC1	.	1.5
CCOc1ccc(N(C)S(=O)(=O)c2cc3[nH]c4c(c3cc2CC)C(=O)CC(C)(C)C4)cc1	.	1
Cn1c2c(c(=O)n(C)c1=O)C(c1ccc(F)cc1)C1=C(N2)c2ccccc2C1=O (configuration not stated)	-1.7	0.75
CC(C)N(CCCNS(=O)(=O)c1ccc2c(c1)CCCC(=O)N2)C1CCCCC1	.	0.59
COC(=O)c1cc(=O)n2c(nc3cc(C(F)(F)F)ccc32)s1	-1.2	.
CCNC(=O)N(c1ccccc1)c1ccccc1	-0.05	.
N#Cc1ccc(S(=O)(=O)Nc2cccc3ccccc23)cc1	1.9	.
COc1cc2ncc(S(=O)(=O)c3ccc(C)cc3)c(N3CCN(C)CC3)c2cc1OC	0.99	0.36
O=C(Nc1c(C(=O)N2CCN(c3ccc(F)cc3)CC2)oc2ccccc12)C1CCCCC1	.	1.5
O=C(c1ccc(Cl)cc1)N(Cc1ccc(Cl)cc1)Cc1ccco1	-1.8	1.9
Cc1nc2nc(CN)nn2c(C)c1CCC(=O)NC1CCCCC1	0.22	0.89
CC1CCc2onc(C(=O)NCc3ccccn3)c2C1 (configuration not stated)	.	-0.43
CCc1nnc(NC(=O)CSc2nnnn2-c2ccccc2)s1	0.71	-0.29
CC(C)CC1(C)OCC(CN2CCCCC2)O1 (configuration not stated)	-2.6	.
CCc1nc(C)sc1-c1nnc(NC(C)=O)o1	.	0.88
O=C(NCCN1CCc2ccccc2C1)c1noc2c1CSc1ccccc1-2	-2.2	1.6
O=C(c1cnn(-c2ccc(F)cc2)c1-n1cccc1)N1CCCC(C(=O)N2CCCC2)C1 (configuration not stated)	.	1.8
Cn1ncc(CO)c1C(F)(F)F	-1	.
COc1ccc(-n2ncc3c2CC(c2ccco2)CC3=O)cc1 (configuration not stated)	-0.08	0.68
Cc1ccc(S(=O)(=O)N2N=C3CCCCC3C2(O)C(F)(F)F)cc1 (configuration not stated)	0.01	.
O=C(Cc1c(O)c2ccccc2[nH]c1=O)NCC1CCCO1 (configuration not stated)	-3	.
CC(=O)N1c2ccc(S(=O)(=O)NCC3CCC(C(=O)N(C)C4CCCCC4)CC3)cc2CC1C (configuration not stated)	.	-0.56
O=C(Nc1ccc(F)cc1F)Nc1noc2c1COc1ccccc1-2	.	2
Nc1ncnc2oc(-c3ccccc3)nc12	-0.9	.
Cc1ccc(C)c(NC(=O)CSc2nn3c(=O)c(C(C)(C)C)nnc3s2)c1	.	1.1
O=c1c(N2CCOCC2)csc2ccc(F)cc12	.	0.68
CC(C)(C)c1nnc2sc(/C=C/c3ccco3)nn12	-1.5	-2.2
COc1ccc(N2CCN(C(=O)C3CCCN(C(=O)c4cc5sccc5n4C)C3)CC2)cc1 (configuration not stated)	-1.5	-0.16
CCOC(=O)c1c(C)[nH]c(C)c1S(=O)(=O)N1CCC(C(=O)NC2CC2)CC1	.	-1.2

As entered above.
`CCN(CC)Cc1cc2ccccc2c2c1COC2` in TAR Tat displ reads 0.7
`CC(=O)N1c2ccc(S(=O)(=O)NCC3CCC(C(=O)N(C)C4CCCCC4)CC3)cc2CC1C` (configuration not stated) in TAR Tat displ reads -0.56

Next results.
SMILES	CDC25B-CDK2 inh	TAR Tat displ
COc1ccc(-n2ccc(=O)c(C(=O)Nc3nc(C)c(C(=O)OCC(C)C)s3)n2)cc1	-1.1	0.85
CCc1ccc(N2CCn3c2nc2c3c(=O)n(CC(C)C)c(=O)n2C)cc1	.	2.3
COc1ccc(OCC(O)Cn2c(N)nc3c2c(=O)n(C)c(=O)n3C)cc1 (configuration not stated)	-1.1	.
Cc1nc2ncnn2c(Nc2ccc(F)cc2)c1C	.	0.2
Cc1cc(C)nc(NCc2ccco2)n1	-0.11	-0.54
Cc1ccc(NC(=O)c2oc3ccccc3c2NC(=O)c2nn(-c3cccc(C)c3)ccc2=O)cc1	-0.9	0.05
Cn1nc(C(=O)NCCN(Cc2ccco2)C2CCCC2)c2c1-c1ccccc1OC2	-1.6	0.95
O=[N+]([O-])c1cc(Cl)c(-n2cccc2)cc1N1CCCCC1	-1.7	.

Full records from above.
Cc1ccc(NC(=O)c2oc3ccccc3c2NC(=O)c2nn(-c3cccc(C)c3)ccc2=O)cc1 is entered as CDC25B-CDK2 inh = -0.9; TAR Tat displ = 0.05
COc1ccc(OCC(O)Cn2c(N)nc3c2c(=O)n(C)c(=O)n3C)cc1 (configuration not stated) is entered as CDC25B-CDK2 inh = -1.1; TAR Tat displ = .
Cc1nc2ncnn2c(Nc2ccc(F)cc2)c1C is entered as CDC25B-CDK2 inh = .; TAR Tat displ = 0.2
